# Screening data deposited in PubChem by National Center for Advancing Translational Sciences (NCATS).
# Sfp PPTase inh: inhibitors of Bacillus subtilis Sfp phosphopantetheinyl transferase | Biochemical Sfp PPTase activity, qHTS | 3.5% of 310,000 active | AID 1490 | Potency, µM, for inactives: max response, negative = inhibition, most hits filed as inhibitors | Q9F4F7; active = well fitted inhibition curve with a large enough effect; inconclusive = small, poorly fitted or top-dose-only effect, or another doubt; inactive = no such curve, though single readings can be large or run the other way;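 also: the enzyme is Sfp with the accession as filed and its product quenches rhodamine fluorescence; potency is read from the fitted curve at half-maximal effect; 0% = enzyme reaction without inhibitor and -100% = no enzyme wells; top concentration of the series not given in the record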
#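 Step 1, compound plus 15 nM Sfp-PPTase, 15 min, room temperature. Step 2, add rhodamine-CoA (5 uM) and BHQ-2-YbbR (12.5 uM). Step 3, read 525/598 nm fluorescence at 0 and 30 min.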
# ClpP mod: qHTS Assay for Activators of ClpP; purified B. subtilis ClpP, FRET peptide cleavage, 20 min; Potency, µM (doses to about 57.5 µM), inactives show at the top dose activity change, negative = active; ATP-dependent Clp protease proteolytic subunit (Bacillus subtilis (strain 168)), P80244; 1.9% of 340,000 active; active = well fitted falling curve with a large enough effect; inconclusive = small, poorly fitted or top-dose-only effect; inactive = no such curve, though single readings can be large or run the other way; also: potency is read from the fitted curve at half-maximal effect; the source files actives as falling curves though it sought activators and does not explain the sign; nearly all actives have a fitted effect of over 65% in size; many hits overshoot -100%
# Target sequence (P80244 whole entry, looked up): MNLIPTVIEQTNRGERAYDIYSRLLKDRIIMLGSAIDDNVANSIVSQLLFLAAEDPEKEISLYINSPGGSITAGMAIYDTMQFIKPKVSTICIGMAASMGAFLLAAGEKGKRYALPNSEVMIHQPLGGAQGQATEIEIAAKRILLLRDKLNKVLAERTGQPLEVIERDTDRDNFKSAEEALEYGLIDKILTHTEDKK
#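 FRET quenching reversal measured ClpP activation: 10 microg/mL B. subtilis ClpP at pH 8 with the FRET-FV decapeptide, read at 430 nm after 320 nm excitation. The 20-min minus 0-min signal was scaled between DMSO/no-enzyme wells and ADEP (5.8 microM final).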
# TRPML1 inh: blocks the human TRPML1 channel. Q9GZU1. TRPML1-inducible cells, Ca2+ dye fluorescence, FDSS; active compounds read low; inhibition of EC80 agonist-evoked calcium signal. activity change, negative = inhibition, % (no concentration beside the values). 0.02% of 390,000 active. AID 624415; in the data active means activity change below about -50%; inconclusive means about -30% to -50%; inactive means above about -30%;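 also: stimulus is agonist 54-4 at its EC80 concentration; % is scaled to controls: 0 for no effect and ±100 for the full control effect; compound concentration not given in the record; the text of the record puts the active cut at -80%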
# Target sequence (Q9GZU1 whole entry, looked up): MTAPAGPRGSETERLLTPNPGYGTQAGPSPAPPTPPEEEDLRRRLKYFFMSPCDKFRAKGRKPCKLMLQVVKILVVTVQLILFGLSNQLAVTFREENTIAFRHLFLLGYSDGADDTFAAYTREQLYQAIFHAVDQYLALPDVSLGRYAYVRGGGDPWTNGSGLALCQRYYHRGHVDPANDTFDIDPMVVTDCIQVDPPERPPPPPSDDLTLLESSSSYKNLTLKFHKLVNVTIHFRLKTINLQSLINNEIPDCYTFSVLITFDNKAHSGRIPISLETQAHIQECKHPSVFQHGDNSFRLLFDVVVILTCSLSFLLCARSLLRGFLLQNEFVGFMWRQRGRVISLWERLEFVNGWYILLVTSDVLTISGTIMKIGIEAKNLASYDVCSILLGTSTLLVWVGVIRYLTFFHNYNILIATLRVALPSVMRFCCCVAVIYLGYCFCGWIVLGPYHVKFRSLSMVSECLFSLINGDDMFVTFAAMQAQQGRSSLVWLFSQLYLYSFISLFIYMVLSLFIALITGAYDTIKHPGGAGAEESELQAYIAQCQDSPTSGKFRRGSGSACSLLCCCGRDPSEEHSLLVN
#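 Calcium fluorescence in TRPML1-DL cells induced overnight with Tet: a 110 s read after compound pin addition, then a 110 s antagonist read after challenge with 54-4 at 4 uM final (EC80).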
# PINK1 modulator: changes PINK1 expression; PINK1 immunofluorescence, high-content cytometry, 24 h; Potency, µM (doses to about 76.6 µM), without a hit: top-dose activation (PINK1 increase), actives largely listed as activators; 0.2% of 410,000 active; AID 624263; active = well fitted activation curve with a large enough effect; inconclusive = small, poorly fitted or top-dose-only effect; inactive = flat fitted curve, though single readings scatter; cell line not stated here;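 also: potency is read from the fitted curve at half-maximal effect; % of control where 0% means no effect; nearly all actives have a fitted effect of over 65% in size; a mitochondrial uncoupler was the plate control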
#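 A stable cell line was treated with compounds at 5 concentrations for 24 hours, with CCCP as control. PINK1 levels and mitochondrial localization were measured by immunofluorescence with mitochondrial, cell and nuclear markers after fixation, read by laser-scanning cytometry.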
# TRPML1 agonist: agonists of human TRPML1 channel; TRPML1-expressing cells, Ca2+ dye fluorescence, FDSS; host cell line not named in the record; reference of the full effect not given here; activation, % (test concentration not listed); Q9GZU1; 0.12% of 410,000 active; AID 624414; in the data active = activation above about 50%; inconclusive = about 30% to 50%; inactive = below about 30%; also: 0% is about no effect; the text of the record puts the active cut at 80%
#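 Cells: TRPML1-DL, 1X Tet inducer, ~16 h at 37 degrees C/5% CO2. Dye: ABD Ca8 no-wash + quencher, 45-90 min RT. Read: 10 s baseline, compound add, 110 s agonist phase; 54-4 EC80 (4uM final), 110 s antagonist phase.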
# Menin-MLL FL inh: inhibitors of human menin-MLL interaction, wild-type MLL peptide; Fluorescence polarization, fluorescein-MLL peptide displacement from menin; FP activity change, % at 61.4 µM; 290,000 tested, under 10 active; AID 1766; inconclusive = falling polarisation curve, or a change in total fluorescence; inactive = total fluorescence flat and polarisation flat or rising; no compound was filed as active; the % refers to the polarisation; negative = inhibition;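 also: % of control where 0% means no effect; inhibitors lower the polarisation; unlabelled MLL peptide was the positive control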
# TRPV1 potentiator: potentiators of human vanilloid receptor 1 (TRPV1). potentiation, % at 8.33 µM. Q8NER1. TRPV1-expressing cells, Fluo-8 calcium influx, capsaicin EC20 potentiation; host cell line not named in the record; control for the full effect not named in the record. 0.02% of 320,000 active; active means potentiation above 80%; inconclusive means 30% to 80%; inactive means below 30%; also: 0% is about no effect
#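 Fluo-8 calcium influx in TRPV1-expressing cells, kinetic read (ex 480/em 520 nm). Compound added and read 3 min for agonist activity, followed by capsaicin at EC20 final and 2 min further read for enhancement.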
# Starred values were filed as active, the others as inactive; ? = inconclusive; . = no result given; & = joins results of further samples; [ ] = remark or other dose.
# Start of the listing, in advance:
SMILES,Sfp PPTase inh,ClpP mod,TRPML1 inh,PINK1 modulator,TRPML1 agonist,Menin-MLL FL inh,TRPV1 potentiator
O=C(CSc1nnnn1-c1ccccc1)Nc1nsc(-c2ccccc2)n1,-7%,-5.8%,-15,?,0.7,1.8,9
CCn1c(=S)sc2c(=O)n(CC(=O)Nc3ccccc3OC)c(C)nc21,13%,2.6%,-5,2.9%,-0.9,-2.4,2
Cc1c(NS(=O)(=O)c2ccc(Cl)cc2)c(=O)n(-c2ccccc2)n1C,.,1.7%,-2,-4.0%,0.5,.,.

# The list itself, repeating the preview:
SMILES,Sfp PPTase inh,ClpP mod,TRPML1 inh,PINK1 modulator,TRPML1 agonist,Menin-MLL FL inh,TRPV1 potentiator
O=C(CSc1nnnn1-c1ccccc1)Nc1nsc(-c2ccccc2)n1,-7%,-5.8%,-15,?,0.7,1.8,9
CCn1c(=S)sc2c(=O)n(CC(=O)Nc3ccccc3OC)c(C)nc21,13%,2.6%,-5,2.9%,-0.9,-2.4,2
Cc1c(NS(=O)(=O)c2ccc(Cl)cc2)c(=O)n(-c2ccccc2)n1C,.,1.7%,-2,-4.0%,0.5,.,.
CC(NC(=O)Cn1cc(C(=O)C2CC2)c2ccccc21)c1ccccc1 (centres undefined),14%,-1.8%,39,-0.4%,2.0,0.2,-6
Cc1ccc(-c2cc(C(=O)O)n(Cc3ccccc3)n2)cc1,.,-1.3%,0,1.6%,-0.1,.,.
CCOc1ccc(S(=O)(=O)N/N=C(\C)c2ccc3c(c2)OCO3)cc1,-4%,0.5%,-2,-0.3%,0.0,-0.9,-1
COc1ccc(NS(=O)(=O)c2cccc3cccnc23)cc1Cl,-16%,.,-14,2.1%,2.6,-2.1,23
O=C(O)[C@H](CSCc1ccccc1)NS(=O)(=O)c1ccc(F)cc1,-15%,-1.4%,-5,-2.4%,-0.4,0.0,5
CCCCNC(=O)C1(C)CCCCN1C(=O)c1oc2ccccc2c1C (centres undefined),.,0.0%,.,0.1%,-0.5,.,.
CC(=O)C[C@H]1c2cc(C(F)(F)F)ccc2S(=O)(=O)N1c1ccccc1,.,2.2%&2.3%,-1,9.1%,-0.2&-1.0,.,.
Cc1cccc(NC(=O)CC2SC(=O)N(c3ccccc3)C2=O)c1 (centres undefined),-25%,35µM*,24,4.2%,-1.2,-2.6,-1
CCOc1ccc2ccccc2c1/C=N\NC(=O)OC,8%,?,-2,0.3%,-0.3,0.4,11
COc1ccc(CCNC(=O)c2cc(-c3ccc(C)cc3)nc3n[nH]c(-c4ccccc4)c23)cc1OC,.,13µM*,-16,0.4%,0.7,.,.
Cc1cccc(C)c1NC(=O)COc1ccc2c(C)c(Cc3ccccc3)c(=O)oc2c1,45%[activator],-2.5%,6,5.6%,0.2,1.0,2
O=C(CCCN1C(=O)c2ccccc2C1=O)Nc1nccs1,-8%,0.7%,1,6.3%,0.2,1.8,17
O=C1CC(c2ccco2)CC(O)=C1C=NCCN1CCN(C(=O)Nc2ccc(Cl)cc2)CC1 (centres undefined),8%,-1.3%,-4,1.8%,2.1,-5.0,-5
O=C(O)c1ccc2ncsc2c1,3%,.,1,1.8%,-0.1,2.7,-14
O=S(=O)(Nc1ccc2c(c1)nc1n2CCOC1)c1ccccc1,-14%,0.2%,-15,0.7%,0.1,2.9,-5
COc1cccc2oc(-c3ccco3)cc(=O)c12,3%,4.0%,-7,-0.9%,-0.6,8.7,-6
Cc1cccc(/C(N)=N/OC(=O)c2ccc(Cl)cc2Cl)c1,9%,0.9%,-4,-4.4%,-0.9,-0.1,1
CCn1c(/C=C/c2ccccc2C)nc2ccccc2c1=O,-9%,-1.0%,.,3.2%,.,-0.2,-25
N#CC1C(=O)NC(=O)C(C#N)C12CCCCC2 (centres undefined),.,-0.7%,.,-1.1%,0.1,.,.
COc1cccc(NC2=C(NCCO)C(=O)c3ccccc3C2=O)c1,-7%,.,-5,0.0%,0.6,-13,?
O=C(O)CNC(=O)c1nc(-c2ccccc2)n(-c2ccccc2)n1,6%,-0.7%,10,-0.2%,0.3,5.7,7
CCCc1cc(=O)oc2cc(OCC(=O)Nc3ccccn3)ccc12,-9%,3.6%,-3,4.2%,0.1,.,2
O=C(Cc1ccc(F)cc1)Nc1cccc(-c2ccc3nncn3n2)c1,16%,.,-2,0.4%,0.6,-5.3,14
COc1ccc(NC(=O)CSc2nnc(-c3nnn(-c4ccc(F)cc4)c3C)o2)cc1,.,-1.0%,30,0.4%,-0.3,.,.
Cc1ccc(-n2c3c(cc(C(=O)NCCCN4CCOCC4)c2=O)C(=O)CC(C)(C)C3)cc1,6%,-5.6%,4,5.2%,0.1,4.8,1
COc1ccc(-c2c(C)nn3c(Cl)c(C)c(C)nc23)cc1,14%,-1.8%,-12,3.8%,2.8,3.7,15
O=c1[nH]c2c(s1)C(c1cccnc1)C1C3CCC(C3)C1S2 (centres undefined),12%,-1.7%,24,0.9%,1.1,-0.2,-9
COC(=O)[C@@]1(Cc2ccc(OC)cc2)[C@H]2c3cc(C(=O)N4CCCC4)n(Cc4ccccn4)c3C[C@H]2CN1C(=O)c1ccccc1,12%,-8.3%,.,10%,6.1,-0.5,.
CN(CC(=O)Nc1ccc(Cl)c(S(=O)(=O)N(C)C)c1)Cc1ccccc1,6%,.,-12,-1.9%,0.1,-3.3,-2
C[C@H](NC(=O)c1ccco1)C(=O)N1CCN(c2ccc(C(F)(F)F)cn2)CC1,.,3.6%,-21,0.4%,1.0,.,.
Cc1ccc(-n2nnc3c(=O)n(Cc4ccccc4C)cnc32)cc1,25%,-2.2%,60,1.1%,-0.2,-0.3,4
CCn1ccnc1[C@@H]1C[C@H]2CN(Cc3cccc(Cl)c3)C(=O)[C@]23CCCN13,6%,.,22,0.9%,2.2,-0.9,-1
Cc1cc(NC(=O)Cc2ccc(Br)cc2)no1,17%,-0.3%,18,1.1%,0.6,1.8,-1
CC(=O)c1cccc(NC(=S)Nc2ccn(Cc3cccc4ccccc34)n2)c1,15%,.,11,0.9%,1.3,0.7,7
CC(C)C(=O)Nc1ccc(C(=O)N/N=C/C2CC3C=CC2C3)cc1 (centres undefined),-8%,.,19,2.6%,0.6,1.2,-1
Cc1ccc(NS(=O)(=O)c2ccc(C(C)C)cc2)cc1S(=O)(=O)N1CCOCC1,.,0.5%,2,2.3%,1.2,.,.
COc1cc2c(cc1OC)C(COc1ccc3c(C)cc(=O)oc3c1)N(C(=O)c1ccc(C)c(C)c1)CC2 (centres undefined),.,4.4%,12,0.0%,0.1,.,.
CNc1[nH]ncc1[N+](=O)[O-],9%,.,13,-1.9%,0.4,0.2,-5
COc1ccccc1NCC(=O)NN=C1CCS(=O)(=O)c2ccc(F)cc21,.,-2.6%,13,-0.2%,-0.1,.,.
N#CCCN1CCCN(CCC#N)CCN(CCC#N)CCCN(CCC#N)CC1,0%,.,?,6.2%,0.9,3.6,10
O=C(COC(=O)CCNS(=O)(=O)c1ccccc1F)Nc1nnc(-c2ccccc2)o1,.,-3.1%,-11,-1.2%,-0.2,.,?
COc1ccc(C(=O)NCC(=O)OCC(=O)NC(=O)c2ccc(C(C)(C)C)cc2)cc1OC,.,2.2%,-17,-0.8%,-0.5,.,6
CC(NC(=O)CCSc1nc(-c2ccco2)cc(C(F)(F)F)n1)c1ccccc1 (centres undefined),11%,-8.9%,-9,1.5%,-0.9,4.5,-29
Cc1c(C(=O)c2ccccc2)oc2ccc3ccccc3c12,?,-0.1%,35,8.9%,2.0,2.5,-5
CCOC(=O)c1csc(NC(=O)C(C)(C)C)n1,5%,-0.8%,42,2.2%,-0.6,-1.6,-10
CCOC(=O)c1csc(NC(=O)c2ccc(S(=O)(=O)N3CCCC3)cc2)n1,-19%,-8.6%,2,?,-0.4,3.9,17
CCc1ccc(NC(=O)CN2C(=O)C3(SCC(=O)N3c3ccccc3)c3ccccc32)cc1 (centres undefined),.,-1.9%,-17,-2.8%,1.0,.,.
CC(=O)c1ccc(N2CCN(c3ncnc4onc(-c5ccc(Cl)cc5)c34)CC2)cc1,.,3.5%,47,1.6%,-1.1,.,.
Clc1cnc(N/N=C/c2ccncc2)c(Cl)c1,9%,.,2,-0.2%,-0.3,-1.8,-12
Cc1ccc(Nc2nc3nonc3[nH]c2=O)cc1Cl,-5%,.,11,?,0.4,-2.4,27
CCOC(=O)N1CCN(C(=O)CSc2nc3c(cnn3-c3ccc(Cl)cc3)c(=O)[nH]2)CC1,-7%,1.3%,-6,0.3%,0.0,1.1,11
COc1ccc(N2CCN(C(=O)Nc3ccccc3Cl)CC2)cc1,-5%,-5.5%,7&9,0.0%&-1.7%,-0.6&-0.5,5.8,1
COc1ccc(NC(=O)c2cc(NC(=O)C3CCCCC3C(=O)O)ccc2N2CCOCC2)cc1 (centres undefined),22%,-0.8%,7,0.8%,0.5,.,20
Nc1ccc(-n2nncc2-c2ccco2)cc1,18%,1.1%,3,4.7%[38.3 µM],-0.5,-2.3,-2
COc1ccc(N=C2C=CC(=O)O2)cc1,.,.,-7,2.7%,-0.6,.,.
O=C(CSc1ncn[nH]1)Nc1ccc(Br)cc1F,?,-3.0%,-4,-1.3%,-0.4,1.2,-15
CCc1ccccc1Nc1nc(N)nc(COC(=O)CCC(=O)c2ccc(F)cc2)n1,.,-0.2%,-5,0.8%,1.9,.,5

# Next section.
SMILES,Sfp PPTase inh,ClpP mod,TRPML1 inh,PINK1 modulator,TRPML1 agonist,Menin-MLL FL inh,TRPV1 potentiator
CCC(Sc1nc2sc(C(=O)OC)c(C)c2c(=O)n1N)C(=O)NCC1CCCO1 (centres undefined),7%,-2.9%,2,5.6%[38.3 µM],-0.5,1.8,2
Cc1nc2ccc(C(=O)N(C)Cc3ccccc3)cn2c1N(C)C(=O)CCc1ccccc1,.,-15%,.,-0.5%,-0.4,.,.
O=C(N/N=C/c1ccccc1)c1cccc2ccccc12,.,.,-9,13%,3.2,.,.
COc1cc(CCCN2C(N)=NC[C@@H]2Cc2ccccc2)cc(OC)c1OC,2%,0.8%,-2,1.0%,-0.5,-1.2,?
CC(C)(C)OC(=O)N1CCC(NC(=O)c2nc[nH]c2C(=O)N2CCc3ccccc3C2)CC1,.,1.5%,8,-1.0%,-0.8,.,0
